Compound activity as filed in PubChem BioAssay.
Sa RN4220 lethal: growth inhibition of S. aureus RN4220, primary screen, OD600. inhibition, % (no concentration beside the values). 330,000 compounds, 0.33% hits. 16 h;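 active means z-score of -3 or lower and OD600 up to 0.18 on both plates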;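 further: plate controls were untreated cells for no effect and reference antibiotic for full effect; stock transfer was 100 nL into about 80 µL; one replicate is shown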
Sa ugtP lethal: growth inhibition of ugtP-null S. aureus, primary screen, RN4220 ugtP deletion, OD600; 16 h; some inactives read as strong as hits; growth inhibition, % (test concentration not listed); AID 1259309, 2017; 330,000 compounds, 0.54% hits;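 active means z-score under -3 and OD600 up to 0.15 on both plates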;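 further: plate controls were untreated wells for no effect and antibiotic for full effect; wells of about 80 µL received 100 nL stock; the first replicate is given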
Autofluor counter: counter-screen for toxin protease inhibitors: compound fluorescence; fluorescence intensity (concentration not given with the values); 360,000 compounds, 3.1% hits; AID 624483; compound autofluorescence counterscreen, microsphere flow cytometry; active compounds read high;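 active means at least 3 SD above the mean of all compounds, about 16000 in these data; inconclusive means too few beads counted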;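 further: 100 nL of 1 mM stock went into each well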
BJeLR viability: MLPCN primary cell-based screen for lethality selective to Ras in HRASV12 cells. BJeLR (HRASV12) viability, CellTiter-Glo ATP luminescence, 48 h; reference of the scale not given here. inhibition, % (concentration not given with the values). 300,000 compounds, 0.17% hits. AID 1554, 2009;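 active means replicate mean above 50%; inconclusive means above 50% but judged a plate artefact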;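 further: 50 nL library stock added to about 25 µL; numbers are from one replicate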
PrP 5UTR inh: inhibition of PrP 5' UTR reporter expression; cell-based PrP 5' UTR mRNA reporter, plate reader; inhibition, % (concentration not given with the values); 340,000 compounds, 0.35% hits; AID 488862, 2010;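 active means every replicate at 50% or more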;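 further: 0 = median of the neutral control wells; tested in H4 reporter cells; numbers are from one replicate; inactives centre near -14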
Mtb hypoxia rep: PubChem AID 1159583; 300,000 compounds, 0.1% hits; fluorescence inhibition, % (test concentration not listed); M. tuberculosis hypoxia-regulated fluorescent reporter, fluorescence;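 active means 35 to 45% if threefold the growth effect, above 45% if 1.5-fold the growth effect; inactive means the rest, general growth blockers included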;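 further: wells of about 50 µL received 100 nL stock; 0% = vehicle wells and 100% = reference inhibitor wells; whole bacteria with a GFP reporter of the hypoxia response; strong numbers were not always called active; many hits fall short of the cut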
Mtb hypoxia rep growth: also measured in Mtb hypoxia rep; calls as there; growth inhibition, %; measured here: M. tuberculosis growth (absorbance);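 0% = vehicle and 100% = reference antibiotic; read after six days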
The depositor's hits bear a star; ? = inconclusive; · = not tested or not shown.

SMILES	Sa RN4220 lethal	Sa ugtP lethal	Autofluor counter	BJeLR viability	PrP 5UTR inh	Mtb hypoxia rep	Mtb hypoxia rep growth
Cc1ccc(OCC(=O)c2cc(C)n(-c3cc(C)on3)c2C)c([N+](=O)[O-])n1	4.2	0.1	6473	·	4.0	2.1	5.4
CCN1/C(=C/c2ccc3cc(C)ccc3[n+]2CC)Sc2cc(C)c(C)cc21	100.1*	100.2*	8339	·	6.1	39.9*	8.9*
CCCCCCCCCCS(=O)(=O)NN=Cc1ccc([N+](=O)[O-])cc1	8.0	-26.5	·	·	·	-2.2	12.6
COc1ccccc1-n1c(SCC(=O)Nc2ccc(Br)cc2)nc(O)cc1=O	3.5	-15.4	4053	-3.8	-26.9	-10.6	-10.2
COc1ccc(NC(=O)CSc2nc3ccccc3c(=O)n2CCCN2CCOCC2)c(OC)c1	6.1	2.2	2134	0.6	-18.7	0.7	-4.5
CC1CN(C(=O)CCC(=O)N2CCN(c3ccccn3)CC2)c2ccccc2O1 (configuration not stated)	-13.0	0.5	6310	-5.3	-22.2	10.5	8.9
O=C(CN1C(=O)S/C(=C\C=C\c2ccccc2)C1=O)Nc1cccc(O)c1	14.2	-2.3	1863	-6.8	-34.4	9.2	4.8
Cc1cccn2c(CN[C@@H]3CCCC[C@H]3c3ccccc3)c(C(=O)N3CCOCC3)nc12	1.9	1.4	5181	2.3	-17.9	-2.7	-12.6
N#CC(C#N)=C1C(=O)N(CCN2CCCCC2)c2ccccc21	8.9	-2.5	·	-1.1	4.2	5.2	4.5
Cc1cc(C)c(S(=O)(=O)NC2CC2)c(C)c1	1.0	0.6	3290	-5.0	-43.5	9.3	0.4
O=C(COc1ccccc1)N1CCN(C/C=C/c2ccccc2)CC1	1.8	-1.8	4515	5.6	-8.1	3.3	8.7
CCOC(=O)N1CCN(C2CCCN(C(=O)c3cccc(N(C)C)c3)C2)CC1 (configuration not stated)	-0.8	-5.1	5349	-10.4	-11.3	-2.4	-6.1
CCC(Oc1ccccc1)C(=O)Nc1cc(C)on1 (configuration not stated)	-11.2	7.8	6375	3.5	-30.9	1.4	7.1
COc1ccc(Cc2nnc(SCC(=O)Nc3ccccc3C#N)o2)cc1	0.0	6.6	3836	-1.3	-29.7	5.1	0.0
COc1ccc(S(=O)(=O)N(C)c2ccc(C(=O)N3CCCC3)cc2)cc1	1.4	-4.5	4571	4.3	-13.2	-3.8	9.6
N#Cc1c(N2C(=O)Nc3ccccc3N2O)sc2c1CCCCCC2	-4.5	2.0	10425	-24.2	-20.0	1.4	5.2
CCOC(=O)C1CCN(C(=O)CSc2c3c(nc4ccccc24)CCC3)CC1	15.0	8.4	2597	-2.0	-16.2	14.5	3.2
Cc1cccc(C(=O)N2CCCCCC2)c1[N+](=O)[O-]	0.2	1.8	2554	2.2	-8.6	10.9	10.6
CCCOc1ccc(C(C)=O)cc1Cc1c(O)[nH]c(=S)[nH]c1=O	2.5	4.7	3839	-7.4	-10.9	-11.6	-7.3
O=C(O)c1ccccc1C(=O)NNc1cccc(Cl)n1	5.1	4.5	2580	-5.9	-4.3	9.6	3.6
CCOC(=O)CSC1=NC(=O)/C(=C/c2ccc(Br)cc2)S1	-0.8	-11.2	4453	31.5	-25.7	5.1	5.9
O=C(CCC(=O)N1C[C@H]2C[C@@H](C1)c1cccc(=O)n1C2)NCc1cccc(C(F)(F)F)c1	4.2	-7.3	5619	-6.8	-8.5	·	·
Cc1cc(OCC(=O)NCCCN2CCCC2=O)c2c(C)c(C)c(=O)oc2c1	5.8	6.6	5237	13.5	-12.8	6.5	5.8
O=C(CN1C(=O)C2CC=CCC2C1=O)N1CCN(S(=O)(=O)c2ccccc2)CC1 (configuration not stated)	3.9	7.2	?	·	-7.4	4.1	3.4
Cc1nnsc1C(=O)NN=Cc1ccccc1	3.5	16.7	·	·	·	5.1	0.9

Profiles as entered above. Values in the order: Sa RN4220 lethal, Sa ugtP lethal, Autofluor counter, BJeLR viability, PrP 5UTR inh, Mtb hypoxia rep, Mtb hypoxia rep growth
O=C(CN1C(=O)C2CC=CCC2C1=O)N1CCN(S(=O)(=O)c2ccccc2)CC1 (configuration not stated) as listed: 3.9, 7.2, ?, ·, -7.4, 4.1, 3.4
O=C(COc1ccccc1)N1CCN(C/C=C/c2ccccc2)CC1 as listed: 1.8, -1.8, 4515, 5.6, -8.1, 3.3, 8.7
Cc1ccc(OCC(=O)c2cc(C)n(-c3cc(C)on3)c2C)c([N+](=O)[O-])n1 as listed: 4.2, 0.1, 6473, ·, 4.0, 2.1, 5.4
COc1ccc(NC(=O)CSc2nc3ccccc3c(=O)n2CCCN2CCOCC2)c(OC)c1 as listed: 6.1, 2.2, 2134, 0.6, -18.7, 0.7, -4.5

Reprinted at random: 6 compounds from above
SMILES	Sa RN4220 lethal	Sa ugtP lethal	Autofluor counter	BJeLR viability	PrP 5UTR inh	Mtb hypoxia rep	Mtb hypoxia rep growth
CC1CN(C(=O)CCC(=O)N2CCN(c3ccccn3)CC2)c2ccccc2O1 (configuration not stated)	-13.0	0.5	6310	-5.3	-22.2	10.5	8.9
COc1ccccc1-n1c(SCC(=O)Nc2ccc(Br)cc2)nc(O)cc1=O	3.5	-15.4	4053	-3.8	-26.9	-10.6	-10.2
COc1ccc(S(=O)(=O)N(C)c2ccc(C(=O)N3CCCC3)cc2)cc1	1.4	-4.5	4571	4.3	-13.2	-3.8	9.6
CCOC(=O)C1CCN(C(=O)CSc2c3c(nc4ccccc24)CCC3)CC1	15.0	8.4	2597	-2.0	-16.2	14.5	3.2
O=C(O)c1ccccc1C(=O)NNc1cccc(Cl)n1	5.1	4.5	2580	-5.9	-4.3	9.6	3.6
COc1ccc(Cc2nnc(SCC(=O)Nc3ccccc3C#N)o2)cc1	0.0	6.6	3836	-1.3	-29.7	5.1	0.0

The list continues.
SMILES	Sa RN4220 lethal	Sa ugtP lethal	Autofluor counter	BJeLR viability	PrP 5UTR inh	Mtb hypoxia rep	Mtb hypoxia rep growth
COc1ccc(CCNc2nc(-c3sc(C)nc3C)cs2)cc1OC	5.7	-10.5	?	2.9	-21.1	1.7	6.2
Cc1cc(NC(=O)c2ccc(Cl)cc2)n(CCOC(=O)c2ccc(Cl)cc2)n1	-5.3	-23.3	2122	-5.7	-3.9	4.5	0.0
CC1CCCCC1NC(=O)CN1c2cccc3cccc(c23)S1(=O)=O (configuration not stated)	1.1	-1.6	8831	·	-20.6	-0.2	4.7
CCOC(=O)c1cc(-c2ccc(OC)cc2)nc2c1c(C)nn2CCC(N)=S	5.1	3.7	2846	-10.6	-42.7	9.8	-0.5
COc1ccc(OCC(=O)OCC(=O)NC2CC2)cc1	-1.0	-1.4	4014	·	-7.6	-6.4	4.8
O=C(CCN1C(=O)/C(=C/c2ccccc2Cl)SC1=S)N1CCCC1	·	·	4999	0.0	-21.4	·	·
Cc1ccc(NC(=O)c2ccc(S(=O)(=O)N3CCCCC3)cc2)cc1	2.6	4.7	11171	-5.7	-16.6	7.8	8.6
